# High-throughput results (PubChem BioAssay)
# BJeLR lethal – MLPCN primary cell-based screen for lethality selective to Ras in HRASV12 cells; BJeLR (HRASV12) viability, CellTiter-Glo ATP luminescence, 48 h; reference of the scale not given here; inhibition, % (test concentration not listed); 300,000 compounds, 0.17% hits; AID 1554, 2009;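 active = replicate mean above 50%; inconclusive = above 50% but judged a plate artefact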;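 also: 50 nL library stock added to about 25 µL; numbers are from one replicate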
# Bead autofluor – counter-screen for toxin protease inhibitors: compound fluorescence | compound autofluorescence counterscreen, microsphere flow cytometry; stronger effect = higher value | fluorescence intensity (test concentration not listed) | 360,000 compounds, 3.1% hits | AID 624483;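 active = at least 3 SD above the mean of all compounds, about 16000 in these data; inconclusive = too few beads counted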;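 also: 100 nL of 1 mM stock went into each well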
# PrP UTR inh – inhibition of PrP 5' UTR reporter expression; inhibition, % (no concentration beside the values); cell-based PrP 5' UTR mRNA reporter, plate reader; 340,000 compounds, 0.35% hits;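 active = every replicate at 50% or more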;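 also: 0 = median of the neutral control wells; tested in H4 reporter cells; numbers are from one replicate; inactives centre near -14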
# Sa ugtP lethal – growth inhibition of ugtP-null S. aureus, primary screen, RN4220 ugtP deletion, OD600. 16 h; some inactives read as strong as hits. growth inhibition, % (test concentration not listed). 330,000 compounds, 0.54% hits. AID 1259309, 2017;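 active = z-score under -3 and OD600 up to 0.15 on both plates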;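 also: plate controls were untreated wells for no effect and antibiotic for full effect; wells of about 80 µL received 100 nL stock; the first replicate is given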
# Mtb hypoxia inh – PubChem AID 1159583; M. tuberculosis hypoxia-regulated fluorescent reporter, fluorescence; fluorescence inhibition, % (no concentration beside the values); 300,000 compounds, 0.1% hits;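 active = 35 to 45% if threefold the growth effect, above 45% if 1.5-fold the growth effect; inactive = the rest, general growth blockers included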;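 also: wells of about 50 µL received 100 nL stock; 0% = vehicle wells and 100% = reference inhibitor wells; whole bacteria with a GFP reporter of the hypoxia response; strong numbers were not always called active; many hits fall short of the cut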
# Sa RN4220 lethal – growth inhibition of S. aureus RN4220, primary screen, OD600. 16 h. inhibition, % (test concentration not listed). 330,000 compounds, 0.33% hits. AID 1259311, 2017;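 active = z-score of -3 or lower and OD600 up to 0.18 on both plates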;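 also: plate controls were untreated cells for no effect and reference antibiotic for full effect; stock transfer was 100 nL into about 80 µL; one replicate is shown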
# Mtb hypoxia inh growth – further read-out of Mtb hypoxia inh, marked with its call; growth inhibition, %; measured here: M. tuberculosis growth (absorbance);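 0% = vehicle and 100% = reference antibiotic; read after six days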
# * marks the source's active call; other numbers are inactive results; ? = inconclusive; nt = no result given.
SMILES,BJeLR lethal,Bead autofluor,PrP UTR inh,Sa ugtP lethal,Mtb hypoxia inh,Mtb hypoxia inh growth,Sa RN4220 lethal
O=C(Oc1ccc(Br)cc1C(=S)N1CCOCC1)c1ccc(F)cc1,10,5381,-13,0,1,4,2.3
N#Cc1ccc(CC(=O)c2ccccc2)[nH]c1=O,nt,3934,-39,12,21,15,3.4
O=C(NC(c1ccc(Cl)cc1)P(=O)(Oc1ccccc1)Oc1ccccc1)OCc1ccccc1 (stereo not given),2,2941,-4,-8,0,6,3.7
Nc1cccc(C(=O)OCC(=O)NC2CCCc3ccccc32)c1 (stereo not given),1,3941,-11,10,10,5,-5.7
COc1ccc(C(=O)/C=C/Nc2ccc(C)cn2)cc1OC,-11,10018,-160,0,11,2,12
CCCCCCNC(=O)CC(c1ccccc1)c1cc(Br)ccc1O (stereo not given),-6,4874,-5,-26,nt,nt,-15
COc1ccc(C2=CSC3=NCCN23)cc1OC,-5,3504,-33,3,5,2,1.2
COc1ccc(NC(=O)C(=O)NN=C(C)CC(=O)Nc2ccccn2)c(OC)c1,nt,nt,nt,3,0,-1,3.6
Cc1ccccc1OCC(=O)OCC(=O)NC1CC1,nt,2824,-13,1,12,-7,3.5
COC(=O)c1ccc2c(c1)C(C)(C)C(/C=C/c1ccc(OC)c(OC)c1OC)=[N+]2C,52*,2506,-24,nt,nt,nt,nt
COC(=O)CNC(=O)/C=C/c1cc(Br)ccc1OC,-18,3977,-25,3,21,15,3.5
COC(=O)c1c(C)[nH]c(C)c1-c1cccc([N+](=O)[O-])c1,4,4096,-2,8,-5,11,4.2
NC(Cc1ccc(Cl)cc1Cl)=NOC(=O)Cc1ccc(Cl)cc1,nt,nt,nt,-2,3,3,4.1
O=C(NC(=S)Nc1ccc2[nH]c(=O)[nH]c2c1)c1ccccc1Cl,5,4846,-14,-3,3,4,1.0
COc1ccc(OCCCC(=O)NNC(=O)CCN2CCN(c3ccccc3)CC2)cc1,8,5144,-5,-2,0,3,2.8

# The last 3 compounds of the part before lead into the next.
SMILES,BJeLR lethal,Bead autofluor,PrP UTR inh,Sa ugtP lethal,Mtb hypoxia inh,Mtb hypoxia inh growth,Sa RN4220 lethal
NC(Cc1ccc(Cl)cc1Cl)=NOC(=O)Cc1ccc(Cl)cc1,nt,nt,nt,-2,3,3,4.1
O=C(NC(=S)Nc1ccc2[nH]c(=O)[nH]c2c1)c1ccccc1Cl,5,4846,-14,-3,3,4,1.0
COc1ccc(OCCCC(=O)NNC(=O)CCN2CCN(c3ccccc3)CC2)cc1,8,5144,-5,-2,0,3,2.8
N/C(=N\OC(=O)c1cccs1)c1ccccc1,1,1946,-98,4,-11,13,-0.1
Cc1c(C)c2c(OCC(=O)N3CCC[C@H]3C(=O)O)cc3c(c2oc1=O)CCC(C)(C)O3,-6,5446,-34,-7,nt,nt,0.6
NS(=O)(=O)c1cccc(NC(=O)COC(=O)CNC(=O)c2ccc(-c3ccccc3)cc2)c1,nt,7473,-28,3,9,2,2.4
Cc1noc(C)c1NC(=O)Nc1ccc2c(c1)C(=O)N([C@H](C)CO)C[C@H](C)[C@@H](CN(C)S(=O)(=O)c1c(C)noc1C)O2,nt,3038,-18,15,5,11,14
CCOC(=O)c1c(S(=O)(=O)NCC2CCN(Cc3cccc(F)c3)CC2)c(C)n(C)c1C,0,6386,-15,6,4,7,1.1
C/C(=N\N1C(=O)CSC1=S)c1ccc(Br)cc1,1,5322,-33,nt,nt,nt,nt
O=C(CNC(=O)c1ccccc1F)NCCc1ccccc1F,nt,6986,-15,13,6,5,5.8
Cc1cc(C)c(S(=O)(=O)Nc2cnc3ccccc3c2)c(C)c1,-3,3687,-13,-10,-11,-6,11
COc1ccc(NC(=O)C(NCC(C)C)c2ccccc2)cc1Cl (stereo not given),12,2471,-12,10,11,-1,2.8
Clc1cccc(Cl)c1C=NNc1nccs1,nt,nt,nt,-11,1,8,-11
CCC1Oc2ccccc2N(CC(=O)NCCCN2CCC(C)CC2)C1=O (stereo not given),-3,7971,-15,4,19,12,4.6
CCOC(=O)N1CCN(CCC(=O)Nc2ccc(C)cc2)CC1,0,4400,-26,0,8,2,5.1
O=C(CN(Cc1ccccc1)C(=O)c1ccc2c(c1)OCCO2)NCc1ccc2c(c1)OCO2,-4,2727,-7,6,nt,nt,-1.1
COC(=O)c1sccc1NC(=O)c1ccc(OC)c(OC)c1,19,4694,-3,-1,nt,nt,2.6
CCN(c1ccccc1)S(=O)(=O)c1ccc(C(=O)Nc2ccc(C)cn2)cc1,11,6690,0,3,4,-2,3.5
O=C(ON=Cc1ccc(N2CCCCC2)c([N+](=O)[O-])c1)c1c(F)cccc1F,nt,nt,nt,-5,12,1,3.6
CCc1ccc(OCc2nnc(SCC(=O)N3CCN(c4ccccc4)CC3)o2)cc1,-7,3771,-22,1,16,17,1.7
O=C(NC1(C(F)(F)F)NC(=O)N(c2ccc(F)cc2)C1=O)c1ccncc1 (stereo not given),5,10828,-17,-1,2,12,-1.7
COc1ccccc1C1CC2CCC(C1OC(C)=O)N2Cc1ccccc1 (stereo not given),6,nt,-7,10,4,-1,0.2
COc1ccc(C(C)(C)C)cc1NC(=O)CCn1[nH]c(=O)ccc1=O,nt,3301,-19,-3,-1,4,-1.3
O=C(O)/C=C/c1ccc(S(=O)(=O)Nc2ccc(OCc3ccccc3)cc2)cc1,-4,5430,-9,2,2,0,3.3
NS(=O)(=O)c1ccc(CCNC(=O)CCCOc2ccccc2)cc1,3,2128,-5,0,6,-5,5.4
N#Cc1ccsc1NC(=O)CCN1CCN(C(c2ccccc2)c2ccccc2)CC1,1,3852,-1,-6,2,3,-6.4
CCN(CC(=O)Nc1ccccc1C(=O)OC)S(=O)(=O)c1ccccc1,0,8889,-10,5,14,7,2.2
Cc1ccc(S(=O)(=O)c2nc(S(C)(=O)=O)sc2N2CCCCC2C)cc1 (stereo not given),1,3839,-3,10,-5,-1,2.6
O=C(C1CCN(S(=O)(=O)c2ccccc2F)CC1)N1CCN(Cc2ccc3c(c2)OCO3)CC1,nt,3031,11,-5,-4,-6,-3.4
Cc1ccc(-n2c(O)c(/C=N/NC(=O)C3COc4ccccc4O3)c3ccccc3c2=O)cc1 (stereo not given),8,8913,-36,nt,nt,nt,nt
O=C(Nc1ccccc1)C1CCCN(S(=O)(=O)c2ccc(-n3cnnn3)cc2)C1 (stereo not given),2,10072,-24,-1,14,6,2.0
C=C(C)COc1ccc(-c2nc(N)ncc2-c2ccc(Cl)cc2)c(O)c1,0,3516,nt,-16,0,-1,-9.1
O=C(CSc1c2c(nc3ccc(Cl)cc13)CCCC2)NCc1ccco1,-1,3883,-14,2,16,16,4.2
c1cc(CN2CCN(C3CCCCCC3)CC2)ccn1,4,4014,-39,2,-4,-6,0.0
CCOC(=O)Cc1n[nH]c(=O)c2ccccc12,4,2619,-11,-4,1,3,6.6
CCC(=O)c1cn(CC(=O)Nc2ccc(C)cc2)c2ccccc12,8,3488,-54,0,1,1,-2.0
CC(C(=O)N1CCOCC1)N1C(=O)C2C3CC(C(Br)C3Br)C2C1=O (stereo not given),5,8999,-12,5,11,3,8.6
O=[N+]([O-])c1ccccc1S(=O)(=O)N1CCN(c2ccc(F)cc2)CC1,-7,3716,-11,6,5,-1,7.1
O=C(c1ccccc1)N1CCN(C(=S)NCc2ccc3c(c2)OCO3)CC1,5,2901,-10,6,-2,-11,1.3
CC(=O)Nc1ccc(S(=O)(=O)N2CCN(C(=O)Cc3ccccc3)CC2)cc1,-6,3414,-15,1,5,14,4.7
CC1=C(C(=O)N(C)Cc2ccccc2)C2(CCC(C)CC2)OC1=O (stereo not given),6,5986,-24,-2,5,16,-0.9
Cc1ccc(-n2ncc3c2ncn2c(C)nnc32)cc1C,nt,6016,-61,-13,2,4,3.0
Cc1ccc(N2Cc3ccccc3C2=S)cc1,5,4608,-85,-4,9,9,7.2
O=S(=O)(c1ccccc1)c1nc(-c2cccc(Cl)c2)oc1N1CCOCC1,3,5112,-9,2,1,-3,0.3
CCC(=O)NCCc1cc2ccc(C)cc2[nH]c1=O,nt,5561,-13,0,13,13,2.8
Cc1ccc(S(=O)(=O)Cc2ccc(C(=O)NCc3ccc4c(c3)OCO4)o2)cc1,2,22168*,-10,-9,0,9,5.7
O=C(O)COCC(=O)NCc1csc2ccccc12,4,4266,-4,8,6,-5,5.1
C=C(c1ccc(OC)cc1)c1ccc(OC)cc1,24,9248,-32,3,15,5,12

# Single records, from the list above. Values in the order: BJeLR lethal	Bead autofluor	PrP UTR inh	Sa ugtP lethal	Mtb hypoxia inh	Mtb hypoxia inh growth	Sa RN4220 lethal
# Profile of COc1ccc(C2=CSC3=NCCN23)cc1OC → -5	3504	-33	3	5	2	1.2
# Profile of Cc1noc(C)c1NC(=O)Nc1ccc2c(c1)C(=O)N([C@H](C)CO)C[C@H](C)[C@@H](CN(C)S(=O)(=O)c1c(C)noc1C)O2 → nt	3038	-18	15	5	11	14
# Profile of CCCCCCNC(=O)CC(c1ccccc1)c1cc(Br)ccc1O (stereo not given) → -6	4874	-5	-26	nt	nt	-15
# Profile of CC1=C(C(=O)N(C)Cc2ccccc2)C2(CCC(C)CC2)OC1=O (stereo not given) → 6	5986	-24	-2	5	16	-0.9
# Profile of Nc1cccc(C(=O)OCC(=O)NC2CCCc3ccccc32)c1 (stereo not given) → 1	3941	-11	10	10	5	-5.7

# Remaining list, next part
SMILES,BJeLR lethal,Bead autofluor,PrP UTR inh,Sa ugtP lethal,Mtb hypoxia inh,Mtb hypoxia inh growth,Sa RN4220 lethal
O=C(NC1CCCc2ccccc21)c1ccc(=O)[nH]c1 (stereo not given),6,3238,-13,6,nt,nt,9.6
O=S(=O)(NCc1cccnc1)c1ccc(Cl)c(Cl)c1Cl,-5,3337,-1,9,nt,nt,2.1
CSc1nc(-c2ccccc2)nc(NC(=O)c2ccccc2)c1C(C)=O,-8,4380,-50,24,15,10,17
COc1ccc(-c2nc(-c3cccs3)c(-c3cccs3)[nH]2)cc1OC,-3,2585,-16,-3,4,2,4.3
O=C(NC(=S)Nc1cc([N+](=O)[O-])ccc1O)c1ccc2c(c1)OCO2,7,5670,-82,48,5,3,49
Cc1ccc(N(CN2CCCC2=O)C(=O)c2ccccc2)cc1,16,4143,-42,1,3,9,4.2
CC1CCCC(NC(=O)CCCn2c(=O)[nH]c3cc(Cl)ccc3c2=O)C1C (stereo not given),-12,10089,-17,-5,5,4,3.6
Cc1cc2ncn(S(=O)(=O)c3ccc(S(=O)(=O)N4CCOCC4)cc3)c2cc1C,6,?,-3,9,-1,4,7.9
O=[N+]([O-])c1cccc2nc(-c3ccccc3)c(-c3ccccc3)nc12,9,3002,-10,97*,-3,5,3.2
O=C(CNC(=O)c1ccc2c(c1)OCCO2)N/N=C/c1ccc(O)cc1O,-6,2106,3,nt,nt,nt,nt
CN1CCCC1CCNc1ccc2sc3ccccc3c(=O)c2c1 (stereo not given),4,5235,-1,12,10,-1,-11
CCOC(=O)c1c(C)[nH]c(C(=O)COc2ccc3ccc(=O)oc3c2)c1C,nt,3403,-32,-4,5,2,1.7
COc1ccccc1CNc1ccc2c(c1)CCC2,4,7228,-28,17,6,15,-0.4
Nc1ccc(-c2nc3cc(N)ccc3n2CCO)cc1,5,3552,-6,2,10,-1,3.0
CCC(=NCc1ccc2c(c1)OCO2)c1c(O)n(C2CCCCC2)c(=O)[nH]c1=O,-2,6204,-14,14,3,5,-3.7
O=C(Nc1ccc2c(c1)OCO2)OCc1ccccc1,11,11563,-67,3,7,-3,0.2
COc1ccc(C(C(=O)NC(C)(C)C)N(C(=O)CCC(=O)Nc2ccccn2)C2CCCCC2)cc1 (stereo not given),13,3999,-20,4,-4,-5,3.7
O=C(CN1C(=O)/C(=C/c2ccc(F)cc2)SC1=S)N1CCN(CCc2ccccn2)CC1,2,5886,7,-1,10,14,2.5
COc1ccc(CNC(=O)CCC(=O)Nc2nnc(C(C)C)s2)cc1,2,3766,-24,13,2,2,3.5
